miR-21 reporter: raises the signal of a miR-21 reporter | HeLa miR-21 FLuc reporter, luciferase, 48 h | Potency, µM (highest dose often 38.3 µM), inactives show at the highest dose reporter change, positive = more light | 340,000 tested, under 10 active | AID 2288; active = well fitted rising curve with a large enough effect; inconclusive = small, poorly fitted or top-dose-only effect; inactive = no such curve, though single readings can be large or run the other way;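 note: % of control where 0% means no effect; miR-21 action dims this reporter so a rising signal means less miR-21 action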
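Luminescence from a firefly luciferase reporter carrying a miR-21 binding site downstream, stably expressed under a CMV promoter in HeLa cells that make miR-21 endogenously, reports miRNA modulation after 48 h compound exposure up to approximately 40uM final.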
An asterisk follows results filed as active; ? = inconclusive. This is a subset; the hit share may differ from the screen's.

SMILES | miR-21 reporter
O=C(Cn1c(=O)oc2cc(S(=O)(=O)N3CCCCC3)ccc21)NCc1ccc(F)cc1 | ?
CCN(Cc1ccccc1)C(=O)Cn1c(=O)cc(C)c2c(C)nn(-c3cccc(F)c3)c21 | 16.2%
Cc1cc(C)cc(NC(=O)CN2C(=O)CSc3ccc(S(=O)(=O)N4CCCC4)cc32)c1 | -11.3%
CCC(Sc1nc2ccncc2[nH]1)C(=O)Nc1cc(C)ccc1C (stereo not given) | 6.0%
CC(=O)c1cc2c(cc1N/C(=N/S(=O)(=O)c1ccc(C)cc1)c1ccc(F)cc1)OCO2 | -1.3%
Cc1cc(C)c(NC(=O)Nc2ccc3snnc3c2)c(C)c1 | 21.1%
O=C(Nc1ccccc1Br)N1CCN2CCCCC2C1 (stereo not given) | -7.3%
CCCN(C(=O)c1noc2c1COc1ccc(C)cc1-2)c1ccc(Cl)c(Cl)c1 | -8.3%

The list continues:
SMILES | miR-21 reporter
CCOc1c(Cl)cc(Cl)cc1CNCCSc1nnnn1C | -5.9%
CCOc1cc(S(=O)(=O)NCCc2c(C)[nH]c3ccc(C)cc23)ccc1F | 2.1%
CC(C)Oc1ccc(CNC(=O)C2=Cc3ccccc3OC2)cc1 | -17.8%
CC(C)c1nnc(N2C(=O)c3oc4ccccc4c(=O)c3C2c2ccccc2F)s1 (stereo not given) | -7.4%
Cc1ccc(Cn2c(C)c(CNCc3ccccc3F)c(C(=O)O)c2C)cc1 | 1.0%
Cc1ccc(Nc2nn3c(=O)c4cc5c(cc4nc3s2)OCO5)cc1Cl | 0.5%
Cc1cc(C)cc(NC(=O)C(Cc2ccccc2)NS(=O)(=O)c2ccc3c(c2)CCC(=O)N3)c1 (stereo not given) | 12.3%
COc1ccc(S(=O)(=O)NCC(c2ccco2)N2CCN(c3ccccc3)CC2)cc1OC (stereo not given) | 4.8%

(list continues)
SMILES | miR-21 reporter
COC(=O)c1ccccc1NS(=O)(=O)c1cc2c(cc1C)N(C)CCO2 | 19.0%
CCOC(=O)c1c(S(=O)(=O)NCC(=O)N(C)c2ccc(C)cc2)c(C)n(C)c1C | 2.3%
O=C(NCCc1nc2ccccc2n1Cc1ccc(Cl)cc1Cl)c1ccco1 | 25.9%
Cc1ccccc1C(=O)OCc1cc(=O)n2nc(C3CCCCC3)sc2n1 | -8.1%
CCOC(=O)c1cnc(NCc2ccc(Cl)cc2)c2ccccc12 | -1.6%
CCOC(=O)c1cccc(NC(=O)c2oc3c(c2C)-c2nn(CC)cc2CC3)c1 | 6.3%
COc1ccc(-c2cn3nc(SCC(=O)Nc4ccc(C)c(Cl)c4)ccc3n2)cc1 | -50.2%
COCC(C)NC(=O)C1=CC(c2ccc3c(c2)OCO3)=NS(=O)(=O)N1C (stereo not given) | 5.0%

Going on with the list:
SMILES | miR-21 reporter
Cc1ccc(-n2c(=O)c3ccccc3n(CC(=O)Nc3cccc(C(F)(F)F)c3)c2=O)cc1 | 12.5%
CC(=O)Nc1ccc(NC(=O)c2nc(SCc3ccccc3C)ncc2Cl)cc1 | -8.5%
COc1ccc(CN(C(=O)COc2ccccc2OC)C2CCS(=O)(=O)C2)cc1 (stereo not given) | -1.9%
COc1ccc(OCc2ccc(-c3nc(C#N)c(N4CCCCC4)o3)o2)cc1 | 2.6%
COc1ccc(NC(=O)C(NS(=O)(=O)c2cccc3nsnc23)C(C)C)cc1OC (stereo not given) | 0.0%
O=C(CSc1nc(-c2cccs2)nc2cc(=O)[nH]n12)Nc1ccccc1Cl | -29.5%
Cc1ccc(Cn2c(=O)n(Cc3ccco3)c(=O)c3sc4ccccc4c32)cc1 | 3.7%
Cc1cc(NC(=O)Nc2nc3c(s2)CCCCCC3)ccc1Br | -1.5%

(continued)
SMILES | miR-21 reporter
O=C(CSc1nc2c(c(=O)[nH]1)CCCC2)Nc1ccc(Br)cc1 | -2.3%
COC(=O)c1ccc(CSc2nc3c([nH]c4ccccc43)c(=O)n2-c2ccc(Cl)cc2)o1 | -18.9%
Oc1ccccc1Nc1nc2ccccc2n2nnnc12 | -39.1%
COc1ccc(N(C)S(=O)(=O)c2ccc3c(c2)CCN3C(=O)CCC(=O)O)cc1 | 0.1%
COc1cccc(-c2cc(C(F)(F)F)nc(NCCc3ccc(OC)c(OC)c3)n2)c1 | 9.4%
COCCCNC(=O)C(=O)NCC(c1ccc2c(c1)OCO2)N1CCOCC1 (stereo not given) | -0.4%
Cc1ccc(NCc2cccn2-c2nnc(N3CCCCCC3)s2)cc1 | -36.1%
CCOC(=O)c1cccc(-n2nnc3c(sc4nc(C)c(Br)c(C)c43)c2=O)c1 | 12.9%

Following part.
SMILES | miR-21 reporter
Cc1ccc(C)c(NS(=O)(=O)c2cc3c(cc2C)n(C)c(=O)c(=O)n3C)c1 | -1.2%
COC(=O)c1cc(NC(=O)CCc2c(C)nc3cc(-c4ccccc4)nn3c2C)cc(C(=O)OC)c1 | 3.7%
Cc1cc(C)c(Cn2c3ccccc3c3cnn(CC(=O)NC4CCCCCC4)c(=O)c32)c(C)c1 | 2.4%
O=S(=O)(Nc1cccc(Cl)c1)c1ccc2[nH]c3c(c2c1)CCCCCC3 | ?
CCOc1ccc(NC(=O)c2cc(=O)c3cc(CC)ccc3o2)cc1 | -8.8%
Cc1cccc(N(CC(N)=O)C2SC(=O)N(Cc3cccc(C(=O)O)c3)C2=O)c1 (stereo not given) | -2.0%
CCN(CC)c1ccc(NC(=O)C(Cc2ccccc2)NS(=O)(=O)c2ccc(Br)s2)c(C)c1 (stereo not given) | 4.3%
O=c1c2sc3ccccc3c2n(Cc2cccc(F)c2)c(=O)n1Cc1ccccc1 | -0.1%

Following part.
SMILES | miR-21 reporter
COc1cccc(-c2nnc(SCC(=O)N3CCC(C)CC3)o2)c1 | -9.8%
CCOC(=O)c1c(S(=O)(=O)N2CCC(C(=O)N3CCN(c4ccc(F)cc4)CC3)CC2)c(C)n(C)c1C | 5.8%
CC(=O)N1CCc2cc(Br)cc(S(=O)(=O)CCC(=O)NCCc3ccc(Cl)cc3)c21 | 7.5%
Cc1ccc(C)c(N2CCN(CCCNC(=O)CCC(=O)N3CCOc4ccc(Cl)cc43)CC2)c1 | 28.3%
CCn1c(CC2C(=O)N(C)c3ccccc32)nc2ccccc2c1=O (stereo not given) | -22.8%
COc1ccc(OCCn2nnc3sc4c(c3c2=O)CCCC4)cc1 | -6.5%
COc1ccc(-n2ncc(C(=O)N3CCN(Cc4ccccc4)CC3)c2C2CCN(C(=O)OC(C)(C)C)CC2)cc1 | 10.7%
CCC(=O)Nc1ccccc1-c1nc2ccccc2n(C(CC)C(=O)Nc2cccc(Cl)c2)c1=O (stereo not given) | 0.7%

(list continues)
SMILES | miR-21 reporter
Cc1ccc(NC(=O)/C(C#N)=C\c2ccc(-c3ccc(Cl)cc3)o2)c(C)c1 | -4.3%
CCOC(=O)c1c(C)sc(-c2c(-c3ccc(OC)c(F)c3)[nH]c3[nH]c(=O)[nH]c(=O)c23)c1O | 14.7%
Cc1cccc(N2C(=O)CS(=O)(=O)C23C(=O)N(C)c2ccccc23)c1 (stereo not given) | 0.0%
O=C(Nc1sc2c(c1C(=O)NCc1ccccc1)CCCC2)c1cc(=O)c2ccccc2o1 | -4.3%
Cc1ccc(NC(=O)Cn2cc(C(=O)C3CCCCC3)c3ccccc32)cc1 | 18.1%
CCCN(CCC)CCCNC(=O)c1cc2c(=O)n(C)c3ccccc3c2s1 | -4.6%
CC(C)Nc1ccc(-c2nc(-c3ccccn3)no2)cc1[N+](=O)[O-] | 3.0%
COc1ccccc1CNC(=O)CSc1ncc(S(=O)(=O)c2ccc(C)c(Cl)c2)c(=O)[nH]1 | 0.7%

Next records
SMILES | miR-21 reporter
O=C(CC1C(=O)NCCN1Cc1ccccc1F)NC1CCCCCC1 (stereo not given) | 0.4%
CCc1nn(CC(=O)Nc2cc(C)cc(C)c2)c(=O)c2cc3sccc3n12 | -2.1%
COc1ccc(CNC(=O)C2CCN(S(=O)(=O)c3ccc(C)cc3)CC2)cc1 | -2.1%
CCCCN1CCCc2cc(CN(CCCN3CCOCC3)C(=O)Nc3ccc(OCC)cc3)ccc21 | 2.9%
CCCCCn1c(=O)[nH]c2cc(C(=O)N3CCN(c4cccc(OC)c4)CC3)ccc2c1=O | ?
CCN(CC)CCNC(=O)C(=O)NCC(c1ccc2c(c1)OCO2)N1CCOCC1 (stereo not given) | -2.3%
Cc1ccccc1CSCc1ccc(C(=O)NCCc2ccccc2)o1 | -9.2%
O=c1oc2ccc3ccccc3c2cc1-c1nnc(Nc2ccccc2F)s1 | 0.0%

New compounds follow.
SMILES | miR-21 reporter
CCCOc1ccc(OC(=O)c2ccc(-c3ccc(CCC)cn3)cc2)cc1 | -55.7%
Cc1ccccc1CSc1nnc2[nH]c(=O)cc(C)n12 | -10.8%
O=C(NCCc1ccccc1)C(=O)NCC(c1ccc2c(c1)OCO2)N1CCOCC1 (stereo not given) | -3.8%
Cc1ccc(-c2nnc3c4ccccc4c(-c4ccccc4)nn23)cc1 | -0.8%
COC(=O)c1c(NC(=O)COc2cc(C)c(Cl)c(C)c2)sc2c1CCCC2 | -10.9%
Cc1ccc(N(C)C(=O)c2noc3c2CCCCC3)cc1C | -2.6%
COc1ccc(NC(=O)c2ccc3c(c2)sc2nc(-c4ccc(OC)cc4)cn23)cc1 | -3.9%
CNC(=O)c1cccc(-n2c(C)nc3cccnc32)c1C | -3.3%

(list continues)
SMILES | miR-21 reporter
CCOc1cc(C2c3c(oc4ccc(F)cc4c3=O)C(=O)N2Cc2ccco2)ccc1O (stereo not given) | -1.3%
CCN1CCN(c2cc(C)c3cc(NC(=O)/C=C/c4cccc(OC)c4OC)ccc3n2)CC1 | -33.9%
CCn1c(=O)c2sccc2n2c(CCC(=O)N3CCN(c4ccccc4OC)CC3)nnc12 | 1.9%
COc1ccc(C)cc1NC(=O)c1noc2c1CSc1ccccc1-2 | -2.0%
CC(C)CCNc1ncnc2c1cnn2-c1cccc(Cl)c1 | -13.6%
Cc1ccc(S(=O)(=O)n2nc(C)c(S(=O)(=O)N3CCC(C)CC3)c2C)cc1 | 3.0%
O=C(CSc1nc(=O)n(CCN2CCOCC2)c2c1CCC2)Nc1ccccc1 | -0.5%
CCN(CC)c1cc(C)c2cc(NC(=O)c3ccccc3Cl)ccc2n1 | 0.2%

The last 3 records of the section before open the next one.
SMILES | miR-21 reporter
Cc1ccc(S(=O)(=O)n2nc(C)c(S(=O)(=O)N3CCC(C)CC3)c2C)cc1 | 3.0%
O=C(CSc1nc(=O)n(CCN2CCOCC2)c2c1CCC2)Nc1ccccc1 | -0.5%
CCN(CC)c1cc(C)c2cc(NC(=O)c3ccccc3Cl)ccc2n1 | 0.2%
COc1ccc(N2CCN(C(=O)c3nc(SC)ncc3Cl)CC2)cc1 | -6.8%
Brc1ccc(Nc2c3c(nc4nncn24)CCC3)cc1 | 2.4%
CC(=O)Nc1ccccc1-c1nc2ccccc2n(CC(=O)Nc2ccc(C)c(Cl)c2)c1=O | 3.0%
CCc1nn2c(=O)cc(COC(=O)c3cccc(NC(=O)COc4ccccc4)c3)nc2s1 | -11.5%
O=C(Nc1nc2ccc(S(=O)(=O)N3CCCC3)cc2s1)c1ccc(F)cc1 | -0.8%
COc1ccc(OC)c(NC(=O)c2cc(S(=O)(=O)NCCc3ccc(Cl)cc3)ccc2F)c1 | 16.4%
CCn1c(SCc2ccccc2Cl)nc(=O)c2c(C(=O)OC)cc(C3CC3)nc21 | 22.9%
Cc1ccc2cccc(NC(=O)COc3ccccc3Cl)c2n1 | -0.5%

Further records follow:
SMILES | miR-21 reporter
Cc1ccc(-c2cc(C(F)(F)F)n3nc(C(=O)Nc4ccc(Cl)c(C(F)(F)F)c4)cc3n2)cc1 | 0.9%
Cc1cccc(C(=O)Nc2ccc3nc(SCC(=O)N4CCCC4)sc3c2)c1 | 11.2%
CCCCC(=O)OC1=C(C(=O)c2ccccc2)N(C)S(=O)(=O)c2ccccc21 | 1.4%
Cc1ccc(Cl)cc1N1CCN(C(=O)CCCn2c(=O)[nH]c3ccc(Br)cc3c2=O)CC1 | ?
CCOc1ccccc1CNC(=O)c1cc2n(n1)CCCN(Cc1ccc(C)cc1)C2=O | 3.5%
O=C(CN1C(=O)CCSc2ccccc21)Nc1ccccc1F | -7.8%
COc1ccc(-c2nc3ccccc3o2)cc1NC(=O)c1ccc(OCC(C)C)cc1 | -14.4%
COc1cccc(N2CCN(S(=O)(=O)c3cc(-c4cc(C)no4)ccc3C)CC2)c1 | -0.1%

New compounds follow
SMILES | miR-21 reporter
Cc1ccc(Cc2nc3ccccc3nc2SCC(=O)NCc2ccc(F)cc2)cc1 | -3.7%
Cc1ccc2nc(-c3ccc(NC(=O)Cc4ccccc4)cc3)sc2c1 | -47.8%
COc1ccc(-c2cn3nc(N4CCC(C(=O)Nc5ccc(Cl)cc5C)CC4)sc3n2)cc1 | 1.3%
CCOc1ccccc1NC(=O)Cn1c(=O)n(Cc2nc(C)no2)c(=O)c2ccccc21 | -1.7%
COCCn1c(CCC(=O)Nc2cc(C)ccc2C)nc2cccnc21 | -5.6%
Cc1ccc(NC(=O)Cc2coc3ccc(C(C)C)cc23)c(C)c1 | 2.7%
CCc1ccc(NCc2cc3cc4c(cc3n(CC(=O)Nc3ccccc3Cl)c2=O)OCO4)cc1 | -8.0%
Cc1ccccc1Nc1c(-c2c(F)cccc2Cl)nc2ccc(Br)cn12 | 7.9%
COc1ccccc1N1CCN(CCCNC(=O)c2cnn(-c3ccccc3)c2C2CCN(C(=O)OC(C)(C)C)CC2)CC1 | 0.1%
COc1cccc(C(=O)N(Cc2ccc(N(C)C)cc2)Cc2ccco2)c1 | 0.0%
Cc1ccc(CNC(=O)Cc2c(C(=O)O)c(C)cn2C)cc1 | -0.3%

Single values from the list:
miR-21 reporter result of Cc1ccc(NC(=O)Cc2coc3ccc(C(C)C)cc23)c(C)c1 → 2.7%
miR-21 reporter result of CCc1ccc(NCc2cc3cc4c(cc3n(CC(=O)Nc3ccccc3Cl)c2=O)OCO4)cc1 → -8.0%
miR-21 reporter result of CCOc1ccccc1NC(=O)Cn1c(=O)n(Cc2nc(C)no2)c(=O)c2ccccc21 → -1.7%
miR-21 reporter result of COCCn1c(CCC(=O)Nc2cc(C)ccc2C)nc2cccnc21 → -5.6%
miR-21 reporter result of Cc1ccc(Cc2nc3ccccc3nc2SCC(=O)NCc2ccc(F)cc2)cc1 → -3.7%
